Bioassay records deposited in PubChem BioAssay by National Center for Advancing Translational Sciences (NCATS).
SARS PLpro yeast: inhibitors of SARS-CoV papain-like protease in yeast; S. cerevisiae expressing SARS-CoV PLpro, growth rescue; control for the full effect not named in the record; Potency, µM (highest dose often 32.9 µM), for inactives: top-dose activity, positive = growth rescue; 330,000 compounds, 0.19% hits; AID 485353; also: 0% is about no effect; nearly all actives have a fitted effect of over 55% in size; growth read by luminescence after 48 h
RE007 growth inh: less growth of the S. pombe RE007 Vpr strain; AID 651644; S. pombe RE007 Vpr strain, BacTiter-Glo ATP luminescence, 24 h; control for the full effect not named in the record; 360,000 compounds, 0.21% hits; Potency, µM (doses to about 92.2 µM), inactives show at the highest dose activity change, negative = less growth; active = well fitted falling curve with a large enough effect; inconclusive = small, poorly fitted or top-dose-only effect; inactive = no such curve, though single readings can be large or run the other way;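 also: % is scaled to controls: 0 for no effect and ±100 for the full control effect; nearly all actives have a fitted effect of over 50% in size; the assay follows cell death caused by Vpr and the record does not say whether a fall means rescue or toxicity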
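Fission yeast strain RE007, carrying one chromosomally integrated HIV-1 vpr copy, was seeded at OD 0.01 in PMG+AL medium with 23 nL pinned compound. After 24 h at 30 °C and 99% humidity, viability was read by BacTiter-Glo luminescence.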
Marburg entry inh: inhibitors of Marburg virus binding or cell entry; Marburg virus pseudotyped entry inhibition, cell reporter; control for the full effect not named in the record; about a third of the inactives were read at about 46 µM; Potency, µM (doses to about 37.8 µM), without a hit: top-dose activity change, negative = inhibition, usual class: inhibitors; 300,000 compounds, 1.8% hits; active = well fitted inhibition curve with a large enough effect; inconclusive = small, poorly fitted or top-dose-only effect, or effect the other way; inactive = flat fitted curve, though single readings scatter; tested in HEK293 cells; about a fifth of its hits are not listed in these tables; also: % is scaled to controls: 0 for no effect and ±100 for the full control effect; luciferase read-out
Cruzain inh Det: inhibitors of Trypanosoma cruzi cruzain with detergent; P25779; purified cruzain, Z-FR-AMC fluorescence, 0.01% Triton; Potency, µM, inactives show max response, negative = inhibition, actives largely listed as inhibitors; 200,000 compounds, 0.43% hits; AID 1478; active = well fitted curve in the direction sought with a large enough effect; inconclusive = small, poorly fitted or top-dose-only effect, or another doubt; inactive = no such curve, though single readings can be large; an effect the other way counts as inactive or inconclusive;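 also: plate controls were neutral wells for no effect and buffer without enzyme for full effect; nearly all actives have a fitted effect of over 40% in size; top concentration of the series not given in the record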
Target sequence (P25779 123-467 limits assumed): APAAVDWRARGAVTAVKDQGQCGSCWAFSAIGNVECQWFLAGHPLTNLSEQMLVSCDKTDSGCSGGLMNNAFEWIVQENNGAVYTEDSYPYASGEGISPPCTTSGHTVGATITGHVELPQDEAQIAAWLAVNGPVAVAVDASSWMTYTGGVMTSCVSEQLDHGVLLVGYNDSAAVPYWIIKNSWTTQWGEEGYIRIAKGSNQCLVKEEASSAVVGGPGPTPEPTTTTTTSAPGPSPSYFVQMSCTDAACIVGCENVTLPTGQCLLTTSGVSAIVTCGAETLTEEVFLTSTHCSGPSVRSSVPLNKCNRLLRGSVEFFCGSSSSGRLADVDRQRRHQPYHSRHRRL
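Cysteine protease activity tested under reducing, mildly acidic conditions (100 mM sodium acetate pH 5.5, 5 mM DTT) plus 0.01% Triton X-100. Cruzain 1.5 nM; substrate Z-FR-AMC 2 uM; 15 min compound preincubation at room temperature.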
2A StopGo: lowers the luciferase signal of an FMDV 2A StopGo reporter. Potency, µM (top dose mostly 57.9 µM), inactives show at the top dose signal change, negative = less light. human cells with a luciferase reporter of 2A StopGo recoding; control for the full effect not named in the record. 410,000 compounds, 1.2% hits; active = well fitted falling curve with a large enough effect; inconclusive = small, poorly fitted or top-dose-only effect; inactive = no such curve, though single readings can be large or run the other way; tested in HEK293T cells; also: % is scaled to controls: 0 for no effect and ±100 for the full control effect; nearly all actives have a fitted effect of over 45% in size; luciferase light after 4 h
NS1 inh: influenza NS1 inhibition; S. cerevisiae slowed by influenza A NS1, growth recovery by OD600; Potency, µM (doses to about 46.1 µM), without a hit: at the top dose activity, positive = more growth; 270,000 compounds, 0.4% hits; also: actives are rising curves; nearly all actives have a fitted effect of over 50% in size
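S. cerevisiae expressing influenza A NS1, grown in glucose, washed, then diluted 1:100 into pH 6.0 -URA galactose medium with 23 nl compound. Growth recovery read as OD600; NS1-free strain serves as control.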
Cruzain noTriton: blocks cruzain activity in detergent-free assay. purified cruzain, Z-FR-AMC fluorescence, no detergent. Potency, µM, inactives show max response, negative = inhibition, actives largely listed as inhibitors. 200,000 compounds, 2.3% hits; active = well fitted curve in the direction sought with a large enough effect; inconclusive = small, poorly fitted or top-dose-only effect, or another doubt; inactive = no such curve, though single readings can be large; an effect the other way counts as inactive or inconclusive;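 also: plate controls were enzyme without inhibitor for no effect and buffer without enzyme for full effect; nearly all actives have a fitted effect of over 40% in size; top concentration of the series not given in the record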
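Purified cruzain at 1.5 nM, pre-incubated 15 min with compound at room temperature in 100 mM sodium acetate pH 5.5, 5 mM DTT, 0.00005% Triton X-100. Reaction started with 2 uM Z-FR-AMC; AMC fluorescence increase over 60 s gives rate.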
Lassa entry inh: Lassa virus entry inhibition | Lassa virus pseudotype entry inhibition, cell reporter; control for the full effect not named in the record | Potency, µM (top dose mostly 37.9 µM), inactives show top-dose activity change, negative = inhibition, usual class: inhibitors | 300,000 compounds, 1.2% hits; active means well fitted inhibition curve with a large enough effect; inconclusive means small, poorly fitted or top-dose-only effect, or effect the other way; inactive means flat fitted curve, though single readings scatter; tested in HEK293 cells; also: % is scaled to controls: 0 for no effect and ±100 for the full control effect; nearly all actives have a fitted effect of over 50% in size; luciferase read-out
* marks the source's active call; other numbers are inactive results; & = joins results of further samples; [ ] = dose if it differs, or a comment. Unless noted, calls follow the shape of the dose curve; as a rule, active means well fitted rising curve with a large enough effect; inconclusive means small, poorly fitted or top-dose-only effect; inactive means no such curve, though single readings can be large or run the other way. Potency is read from the fitted curve at half-maximal effect. Compounds were not picked by outcome. Share with any hit: about 4.6%.

COc1ccc(C2CC(=O)C(C=NCCN3CCN(C(=S)Nc4ccccc4)CC3)=C(O)C2)cc1 (stereo not given) was read as SARS PLpro yeast 1%, RE007 growth inh 12%, Marburg entry inh 3%[46.1 µM], 2A StopGo -5%, NS1 inh 7% and Lassa entry inh -6%[46.1 µM].
For Cc1ccc(NC(=O)C2CCN(S(=O)(=O)c3ccc4c(c3)NC(=O)C(C)S4)CC2)cc1Cl (stereo not given) the results were SARS PLpro yeast -1%, RE007 growth inh 14%, 2A StopGo inconclusive and NS1 inh 27%.
C#CCn1cc(/C=C2\NC(=O)NC2=O)c2ccccc21 was read as SARS PLpro yeast 0%, RE007 growth inh 10%, Marburg entry inh inconclusive, 2A StopGo -4%, NS1 inh 7% and Lassa entry inh -6%[46.1 µM].
Screening Cc1nn(-c2ccccc2)c2nc(N)c(C#N)c(-c3ccc(O)c(O)c3)c12 returned SARS PLpro yeast 0%, RE007 growth inh -3%, Marburg entry inh inconclusive, 2A StopGo -21%, NS1 inh 2% and Lassa entry inh inconclusive.
Screening COc1ccc(Cl)c(S(=O)(=O)N2CCCC2)c1 returned SARS PLpro yeast 1%, RE007 growth inh -13%, Marburg entry inh -8%, Cruzain inh Det 6.4%, 2A StopGo -17%, NS1 inh 5%, Cruzain noTriton 6% and Lassa entry inh 9%.
COc1ccc(OCCNS(=O)(=O)c2cccc([N+](=O)[O-])c2)cc1 was read as SARS PLpro yeast -1%, RE007 growth inh 1%, Marburg entry inh 2%[46.1 µM], 2A StopGo -3%, NS1 inh -3% and Lassa entry inh -6%.
COc1ccc(OCCOc2ccc(S(=O)(=O)N3CCCC3)cc2C(N)=O)cc1 was read as SARS PLpro yeast 4%, RE007 growth inh 2%, Marburg entry inh -2%, 2A StopGo 0% and Lassa entry inh -5%.
COc1ccc(S(=O)(=O)N2CCOC2CNC(=O)C(=O)NCc2cccnc2)cc1C (stereo not given) was read as SARS PLpro yeast 0%, RE007 growth inh -18%, Marburg entry inh -10%[46.1 µM], 2A StopGo -4%, NS1 inh 9% and Lassa entry inh 1%.
For COc1cc(CNCCCN2CCOCC2)c(Br)cc1OCC(=O)Nc1ccccc1C the results were SARS PLpro yeast -1%, RE007 growth inh -23%, Marburg entry inh inconclusive, 2A StopGo -2%, NS1 inh 9% and Lassa entry inh -22%[46.1 µM].
`Cc1cc(C)c(C)c(S(=O)(=O)NCC(=O)Nc2ccc(F)cc2)c1C` gave SARS PLpro yeast 4%, RE007 growth inh 6%, 2A StopGo 33%[activator] and NS1 inh 16%.
`O=C(Nc1cccnc1)c1cc(-c2ccc(Cl)cc2)on1` gave SARS PLpro yeast -3%, RE007 growth inh -8%, Marburg entry inh 14%&14%[46.1 µM], Cruzain inh Det -1.1%, 2A StopGo 55%&70%[activator], Cruzain noTriton 0% and Lassa entry inh 21%[46.1 µM].
For CC(C)COc1ccc(C(=O)OCC(=O)NCCC2=CCCCC2)cc1 the results were SARS PLpro yeast 2%, RE007 growth inh 11%, Marburg entry inh 2%, 2A StopGo 15% and Lassa entry inh -12%.
`Oc1cccc(-c2nc(-c3cccs3)c(-c3cccs3)[nH]2)c1` gave Marburg entry inh inconclusive, Cruzain inh Det -12%, 2A StopGo 0%, Cruzain noTriton 12% and Lassa entry inh 1%[46.1 µM].
`CC(C)(C)S(=O)(=O)c1cnc2c(S(=O)(=O)c3ccccc3)cnn2c1N` gave SARS PLpro yeast 0%, RE007 growth inh 3%, Marburg entry inh inconclusive, 2A StopGo 13% and Lassa entry inh 8%[46.1 µM].
`Cc1cc(=O)n2nc(N3CCCC(C(=O)N4CCN(C)CC4)C3)sc2n1` (stereo not given) gave SARS PLpro yeast 22%, RE007 growth inh -17%, Marburg entry inh -2%, Cruzain inh Det -1.4%, 2A StopGo -5%, NS1 inh -1%, Cruzain noTriton -1% and Lassa entry inh 13%.
Screening CCOc1c(Cl)cc(C(=O)Nc2cccc(C(=O)O)c2)cc1Cl returned SARS PLpro yeast 0%, RE007 growth inh 20%, 2A StopGo -9% and NS1 inh -1%.
For CC(=O)NCCc1ccc(S(=O)(=O)Nc2ccc(NC(=O)c3ccc(F)cc3)cc2)cc1 the results were SARS PLpro yeast -3%, RE007 growth inh inconclusive, Marburg entry inh -1%, 2A StopGo 49%[activator], NS1 inh 14% and Lassa entry inh -13%.
For Cc1cc(C(=O)NCCCn2ccnc2)sc1-c1ccccc1 the results were SARS PLpro yeast -8%, RE007 growth inh 3%, Marburg entry inh inconclusive, Cruzain inh Det -4.1%, 2A StopGo 17%, NS1 inh -6%, Cruzain noTriton inconclusive and Lassa entry inh 0%.
Screening CC(C)[C@H](NC(=O)c1ccccc1)C(=O)OCC(=O)N1CCCc2ccccc21 returned SARS PLpro yeast -2%, RE007 growth inh -1%, Marburg entry inh -14%, Cruzain inh Det -0.7%, 2A StopGo -14%, NS1 inh -7%, Cruzain noTriton -1% and Lassa entry inh inconclusive.
COc1ccc(C(=O)NC2CCCCCC2)cc1S(=O)(=O)Nc1ccc(Br)cc1 was read as SARS PLpro yeast 2%, RE007 growth inh 0%, Marburg entry inh inconclusive, Cruzain inh Det -3.3%, 2A StopGo 24%, NS1 inh -2%, Cruzain noTriton 2% and Lassa entry inh -6%.
For COC(=O)c1ccccc1NC(=O)c1ccc(COc2ccc(C)c(C)c2)o1 the results were SARS PLpro yeast -1%, RE007 growth inh -13%, Marburg entry inh 16%, Cruzain inh Det -7.7%, 2A StopGo -19%, NS1 inh 24%, Cruzain noTriton -12% and Lassa entry inh -13%.
`COc1cccc(CN(Cc2cccnc2)S(=O)(=O)c2ccc(-n3cnnn3)c(C)c2)c1OC` gave SARS PLpro yeast 6%, RE007 growth inh -3%, Marburg entry inh 0%&-11%, Cruzain inh Det 5.8%, NS1 inh -13%, Cruzain noTriton inconclusive and Lassa entry inh -3%.
`CC1=CC(C)(C)C(C(=O)O)C(C(=O)O)C1` (stereo not given) gave SARS PLpro yeast -1%, RE007 growth inh -24%, Marburg entry inh 0%, Cruzain inh Det 0.0%, 2A StopGo -8%, NS1 inh 5%, Cruzain noTriton 8% and Lassa entry inh 6%.
For Cc1ccc(Cl)cc1N1CCN(C(=O)COc2cc(=O)n(C)c3ccccc23)CC1 the results were Marburg entry inh 6%[46.1 µM], Cruzain inh Det -5.2%, 2A StopGo inconclusive, Cruzain noTriton inconclusive and Lassa entry inh -7%[46.1 µM].
`COc1ccc(C(=O)Nc2cc3c(cc2C#N)OCO3)cc1S(=O)(=O)N1CCN(C)CC1` gave SARS PLpro yeast 15%, RE007 growth inh -2%, Marburg entry inh -27%&-27%, Cruzain inh Det -0.8%, 2A StopGo -6%, NS1 inh -27%, Cruzain noTriton -7% and Lassa entry inh 9%.
CCCCCn1c(=O)[nH]c2cc(C(=O)NCCCN3CCCCC3CC)ccc2c1=O (stereo not given) was read as SARS PLpro yeast 6%, RE007 growth inh 6%, Marburg entry inh inconclusive, 2A StopGo -16%, NS1 inh 4% and Lassa entry inh -16%[46.1 µM].
CCOc1cccc(CN2CCN(Cc3ccc(C)o3)C(CCO)C2)c1O (stereo not given) was read as SARS PLpro yeast 1%, RE007 growth inh -12%, Marburg entry inh 1%[46.1 µM], 2A StopGo -5%, NS1 inh 2% and Lassa entry inh -21%[46.1 µM].
For COc1ccc(OC)c(NC(=O)c2ccccc2SC)c1 the results were SARS PLpro yeast -3%, RE007 growth inh -17%, Marburg entry inh inconclusive, Cruzain inh Det 5.3%, 2A StopGo 18%, NS1 inh -54%, Cruzain noTriton 5% and Lassa entry inh -5%.
`CC(C)[C@H](NC(=O)c1ccccc1F)C(=O)OCC(=O)NC(=O)NC1CCCCC1` gave SARS PLpro yeast 3%, RE007 growth inh 10%, Marburg entry inh -24%, 2A StopGo inconclusive and Lassa entry inh inconclusive.
Screening Cc1c([N+](=O)[O-])c([N+](=O)[O-])nn1CC(=O)N1CCCCC1 returned SARS PLpro yeast 8%, RE007 growth inh 22%, Marburg entry inh 18%, Cruzain inh Det -4.1%, 2A StopGo -20%, NS1 inh -19%, Cruzain noTriton -1% and Lassa entry inh -5%.
`CC1(C)CC(=O)C=C(NCc2cccc(C(F)(F)F)c2)C1` gave SARS PLpro yeast -1%, RE007 growth inh 11%, Marburg entry inh -8%[46.1 µM], 2A StopGo -16%, NS1 inh 3% and Lassa entry inh 3%.
`CCc1cc2c3c(c(=O)oc2cc1OCC(=O)OC)CCCC3` gave SARS PLpro yeast -2%, RE007 growth inh 6%, 2A StopGo 4% and NS1 inh -67%.
For Cc1nnnn1CC(=O)Nc1cccc([N+](=O)[O-])c1 the results were SARS PLpro yeast 0%, RE007 growth inh -1%, Marburg entry inh 14%[46.1 µM], 2A StopGo -9% and Lassa entry inh 24%.
Screening Cc1onc(-c2c(Cl)cccc2Cl)c1C(=O)N1CCCCC1 returned SARS PLpro yeast -3%, RE007 growth inh 2%, Marburg entry inh -3%[46.1 µM], 2A StopGo 3%, NS1 inh 12% and Lassa entry inh 0%[46.1 µM].
CCOC(=O)Cc1csc(NC(=O)Cc2ccc(Br)cc2)n1 was read as SARS PLpro yeast -1%, RE007 growth inh 4%, Marburg entry inh inconclusive, 2A StopGo -28%, NS1 inh -2% and Lassa entry inh -10%[46.1 µM].
CCOc1ccccc1NC(=O)c1nc2nc(C)cc(C(F)F)n2n1 was read as Cruzain inh Det 0.5%, 2A StopGo -25%, Cruzain noTriton 1% and Lassa entry inh -21%[46.1 µM].
`Cc1ccc(OCCSc2nnc(-c3ccncc3)n2C)cc1` gave SARS PLpro yeast 2%, RE007 growth inh -30%, Marburg entry inh 4%, Cruzain inh Det -1.7%, 2A StopGo -3%, NS1 inh 0%, Cruzain noTriton 3% and Lassa entry inh 10%.
O=C(O)c1ccc(NCc2cccnc2)c([N+](=O)[O-])c1 was read as SARS PLpro yeast -2%, RE007 growth inh 6%, 2A StopGo 2% and NS1 inh 19%.
O=C(COC(=O)c1ccc(Br)o1)Nc1nc2c(F)c(F)c(F)cc2s1 was read as SARS PLpro yeast 1%, RE007 growth inh -2%, 2A StopGo -9% and NS1 inh 3%.
